MT1-MMP act inh – blocks activation of human MT1-MMP | P50281 | HT1080 RFP-PRO-GFP cells, GFP/RFP ratio fluorescence, overnight; percent of plate control window, DMSO zero | GFP/RFP ratio change, % at 20 µM | 0.061% of 360,000 active | AID 651647;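 active means GFP/RFP ratio change of at least 30% with cell ATP level not reduced by more than half and red fluorescence within 50% of control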; further: strong numbers were not always called active
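Assay system: HT1080 cells carrying an RFP-PRO-GFP reporter | Dosing: Single dose of 20 µM compound, 1% DMSO final | Incubation: Cells overnight before dosing, compound overnight, 37 °C, 5% CO2 | Evaluation: GFP/RFP fluorescence ratio | Control set: DMSO and RFP-L50D-GFP cell wells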
HIV Env fusion – HIV envelope-mediated fusion inhibition | AID 651610 | 1.1% of 360,000 active | HeLa-JRFL Env/CEM21 cell fusion, luciferase | inhibition, % at 12.3 µM;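 active means mean replicate inhibition score of at least 50 and every replicate individually at or above 50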;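 further: 0% = plate neutral controls and 100% = maraviroc near 300 nM; one replicate is shown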
MT1-MMP act inh RFP – recorded beside MT1-MMP act inh, whose call it bears; RFP signal change, %; measured here: RFP expression control read;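 0 = vehicle wells; hits needed this value within 50% of zero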
Starred values were filed as active, the others as inactive; [ ] = dose if it differs, or a comment. These rows are one share of the data; count on the stated rates, not on these rows.

no.	MT1-MMP act inh	MT1-MMP act inh RFP	HIV Env fusion	structure
1	3	3	13	FC(F)c1nc2nc(Cl)c(Cl)nc2[nH]1
2	2	-3	13	CC(C)C[C@H]1COc2cccc(N3CCSCC3)c2S(=O)(=O)N1
3	4	3	29	O=C1NC[C@@H](CCCCN2C[C@H](Cc3ccc(O)cc3)N(CCC3CCCCC3)C(=O)C2=O)N(CCC2CCCCC2)C1=O
4	3	-15	27	CCCCCCSc1ccc(-c2nc3ccc(C)cn3c2NCCCC)cc1OC
5	1	3	-7	O=C(CN1CCSC1=O)N1CCN(S(=O)(=O)c2ccc(F)cc2)CC1
6	-14	-5	16	CC(C)(O)C#Cc1ccc(N2C(c3ccsc3)=Cc3ccc(F)cc3C2c2c[nH]c3ccccc23)cc1 (configuration not stated)
7	1	4	3	COC(=O)[C@@]12C[C@@H](CC(=O)N3CCOCC3)C(=O)N(Cc3ccco3)C1=CCC(C)(C)C2
8	8	7	-42	CCCCN1C(=O)C(CC(=O)NC2CCCC2)CC(C(=O)N2CCCCCC2)=C1C (configuration not stated)
9	-2	-9	75*	Cc1cccc(COC[C@H](Cc2ccccc2)N2CCN(C(=O)c3cccc(Cl)c3)CCC2=O)c1
10	8	3	-8	CC(C)(C)OC(=O)N1CCc2onc(-c3ccccc3[N+](=O)[O-])c2C1=O
11	0	1	-6	COc1ccc(OC)c(NC(=O)COC(=O)CCc2ccc(S(=O)(=O)N3CCOCC3)cc2)c1
12	7	5	13	CCCCC[C@H](C)N1C[C@@H](COCc2ccccc2)Oc2cc(N3CC[C@@H](O)C3)ccc2S1(=O)=O
13	-8	-5	-1	NC(=O)c1ccc(-c2ccc(N3C(c4ccsc4)=Cc4ccc(F)cc4C3CC(=O)c3ccco3)cc2)cc1 (configuration not stated)
14	3	0	3	COc1ccc(-c2nc3c(C(=O)NCCN(C)C)cccc3c3ccccc23)cc1
15	3	10	-9	COC(=O)[C@]12CCCCC=C1N(Cc1ccco1)C(=O)[C@H](CC(=O)N1CCN(C(=O)C3CC3)CC1)C2
16	4	-6	-5	Cc1ccc2nc(-c3cccc(Cl)c3)c(Cc3cccc(F)c3)n2c1
17	-1	1	2	Cc1nc(SCC(=O)NC2CCS(=O)(=O)C2)c2c(C)c(C)sc2n1 (configuration not stated)
18	-2	0	-13	CCC(=O)N(Cc1cc2cc(OC)ccc2[nH]c1=O)c1ccccc1OC
19	-13	-12	-50	CC(=O)CC1c2cc(F)ccc2C=C(c2ccsc2)N1c1ccc(C#CC2(O)CCCCC2)cc1 (configuration not stated)
20	4	4	-21	O=C1c2ccccc2C(c2nnnn2-c2ccc3ccccc3c2)N1C1CC1 (configuration not stated)
21	-2	5	10	CC1(C(=O)Nc2ccc3c(c2)OCCO3)CSCC(=O)N1CCCn1ccnc1 (configuration not stated)
22	-5	-2	9	O=C(CN1CCN(CC(=O)Nc2ccccc2Cl)CC1)NCC1(N2CCOCC2)CCCCC1
23	-6	0	-24	O=C(NCc1ccccc1)C1C(c2ccccc2)=Nc2ccccc2N1C(=O)c1cccnc1 (configuration not stated)
24	-80	-16	-78	CCCCCn1nnnc1-c1nc2cc3ccccc3cc2[nH]c1=O
25	-3	-2	39	COC(=O)[C@@]12C[C@@H](CC(=O)NCC3CCCCC3)C(=O)N(Cc3ccco3)C1=CCC(C)(C)C2
26	2	-3	-4	CC(=O)C1(C)C(=O)N(c2ccc(C)cc2)C(=O)N1c1ccc(C)cc1 (configuration not stated)
27	2	4	9	COC(=O)C1(C(=O)OC)C/C=C\CCN(S(=O)(=O)c2ccccc2[N+](=O)[O-])CC1
28	3	7	-17	CC(C)C(=O)N1CCC1(C)C(=O)Nc1ccc2cn[nH]c2c1 (configuration not stated)
29	0	4	6	CC(O)(Cc1cccnc1)c1cccs1 (configuration not stated)
30	1	0	-7	COc1cc(OCc2ccccc2)c2c(CCC(=O)O)cc(=O)oc2c1

Arranged by count of non-hydrogen atoms (ascending): part of the list above
no.	MT1-MMP act inh	MT1-MMP act inh RFP	HIV Env fusion	structure
29	0	4	6	CC(O)(Cc1cccnc1)c1cccs1 (configuration not stated)
28	3	7	-17	CC(C)C(=O)N1CCC1(C)C(=O)Nc1ccc2cn[nH]c2c1 (configuration not stated)
17	-1	1	2	Cc1nc(SCC(=O)NC2CCS(=O)(=O)C2)c2c(C)c(C)sc2n1 (configuration not stated)
24	-80	-16	-78	CCCCCn1nnnc1-c1nc2cc3ccccc3cc2[nH]c1=O
30	1	0	-7	COc1cc(OCc2ccccc2)c2c(CCC(=O)O)cc(=O)oc2c1
18	-2	0	-13	CCC(=O)N(Cc1cc2cc(OC)ccc2[nH]c1=O)c1ccccc1OC
20	4	4	-21	O=C1c2ccccc2C(c2nnnn2-c2ccc3ccccc3c2)N1C1CC1 (configuration not stated)
21	-2	5	10	CC1(C(=O)Nc2ccc3c(c2)OCCO3)CSCC(=O)N1CCCn1ccnc1 (configuration not stated)
25	-3	-2	39	COC(=O)[C@@]12C[C@@H](CC(=O)NCC3CCCCC3)C(=O)N(Cc3ccco3)C1=CCC(C)(C)C2
19	-13	-12	-50	CC(=O)CC1c2cc(F)ccc2C=C(c2ccsc2)N1c1ccc(C#CC2(O)CCCCC2)cc1 (configuration not stated)

(cont.)
no.	MT1-MMP act inh	MT1-MMP act inh RFP	HIV Env fusion	structure
31	1	-2	-5	COc1c(F)cccc1C1=CC(=O)C[C@H](c2ccc(F)cc2)C1
32	1	-8	10	Cc1cc2nc(C(C)(C)C)c(Cc3ccccc3C(F)(F)F)n2c(C)c1Br
33	-8	-6	-3	CC(C)c1csc(CN2CCC(C(=O)Nc3cccc(-c4ccco4)c3)CC2)n1
34	5	-1	-16	CN(Cc1ccccc1)C(=O)[C@@H]1CCCN1C(=O)[C@@H]1CCCN1C(=O)c1ccccc1
35	2	2	-51	CC(C)CCC[C@](C)(O)c1ccc(C(=O)O)cc1O
36	-1	0	6	Cc1cccc(-c2ccc(O)cc2CN2CCN(c3ncc(Cc4ccccc4)cn3)CC2)c1
37	-3	-14	-36	Cc1ccc(S(=O)(=O)N2CCC(=O)N([C@H](COCc3ccc(Cl)cc3)Cc3ccccc3)CC2)cc1
38	-9	-10	1	COC(=O)[C@@]12C[C@@H](CC(=O)NCC34CC5CC(CC(C5)C3)C4)C(=O)N(Cc3cccc4ccccc34)C1=CCC(C)(C)C2
39	4	3	-8	COc1cc(C)ccc1OCC(=O)OCC(=O)c1ccc[nH]1
40	-4	3	-9	O=C(C[C@@H]1C=C[C@@H](NC(=O)c2cccnc2)[C@@H](CO)O1)NCc1ccncn1
41	1	0	13	CC1(C(=O)NCc2ccccc2)CSCC(=O)N1CCOc1ccccc1 (configuration not stated)
42	1	-2	-38	Cc1cc(=O)n(C(C)c2ccccc2)n1C(C)c1ccccc1 (configuration not stated)
43	4	-6	14	Cc1ccc(S(=O)(=O)Nc2cc(C)cc(CCNC=O)c2C)cc1
44	23	1	-46	CC(=Nc1ccccc1)C1=C(O)C(Cc2ccccc2)NC1=O (configuration not stated)
45	3	-4	-18	COc1ccc(CCc2ccc3cc(OC)ccc3n2)cc1
46	-12	-17	-23	COc1ccc(-c2ccc(CN3C(C(C)C)C(=O)N(Cc4cn(CC5CCCCC5)nn4)CCS3(=O)=O)cc2)cc1OC (configuration not stated)
47	-4	-4	-157	COC(=O)/C=C1\OC(C2CC2)c2ccccc21 (configuration not stated)
48	1	2	6	CCCN(C)C1CN(Cc2cn(Cc3cccc(C(F)(F)F)c3)nn2)S(=O)(=O)C1 (configuration not stated)
49	3	4	18	O=S1(=O)N[C@H](Cc2ccccc2)COc2cccc(N3CCC[C@H]3CO)c21
50	-4	-5	17	O=C(Nc1cc(C(F)(F)F)cc(C(F)(F)F)c1)O[C@@H]1c2ccccc2[C@@H]2Cc3csc[n+]3[C@H]12
51	-9	-14	49	CCCCCCCCCCCCCCCC[N+](C)(C)Cc1ccc(F)cc1
52	4	-1	-25	Cc1ccc(OCCCN2CCC(C(O)(c3ccccc3)c3ccccc3)CC2)cc1
53	-1	-1	6	COc1cc2c(cc1OC)NC(=O)C2
54	-2	-1	-1	COc1ccc(C2/C(=C(/O)c3cnn(-c4ccccc4)c3C)C(=O)C(=O)N2CCN(C)C)cc1OC (configuration not stated)
55	5	0	-22	N#CC1(Nc2ccc([N+](=O)[O-])cc2)CCCC1
56	-2	1	-14	CC(=O)Nc1cc2c(cc1[N+](=O)[O-])-c1ccccc1C2=NO
57	-7	6	-5	COc1ccc(Cl)cc1C=CC=Nc1ccccc1O
58	-8	-4	-5	COc1cc(CN(C(C)=O)c2ccccc2C(=O)O)ccc1[N+](=O)[O-]
59	1	-3	-16	O=S(=O)(NCC[C@@H]1CC[C@H](NS(=O)(=O)c2cccc(F)c2)[C@@H](CO)O1)c1cccc(F)c1
60	1	4	-15[16.7 µM]	CN1CCN(C(=O)C[C@@H]2C=C[C@H](NS(=O)(=O)c3cccc(F)c3)[C@@H](CO)O2)CC1
61	5	3	9	O=C1OC(C(Cl)(Cl)Cl)Nc2ccccc21 (configuration not stated)
62	-1	8	0	COC(=O)C[C@@H]1C=C[C@@H](NC(C)=O)[C@@H](CO)O1
63	5	-27	-36	COc1ccc2c(c1)C(CC(C)=O)N(c1ccc(-c3cccs3)cc1)C(c1ccsc1)=C2 (configuration not stated)
64	-2	-3	-18	CC(NC(=O)c1c(N)[nH]c(C(=O)c2ccccc2)c1-c1ccccc1Br)c1cccc2ccccc12 (configuration not stated)
65	3	7	27	Cc1ccc(CN2C(=O)c3ccccc3C2c2nnnn2C(C)C)cc1 (configuration not stated)
66	0	7	-7	O=C(c1cc(S(=O)(=O)N2CCOCC2)ccc1Cl)N1CCCCC1CO (configuration not stated)
67	-3	-13	4	C=C(NC(=O)C(=C)NC(=O)c1csc(C2=NC3c4csc(n4)C4NC(=O)c5csc(n5)C(C(C)(O)C(C)O)NC(=O)C5CSC(=N5)/C(=C/C)NC(=O)C(C(C)O)NC(=O)c5csc(n5)C3(CC2)NC(=O)C(C)NC(=O)C(=C)NC(=O)C(=C)NC(=O)C(C(C)C)NC2C=Cc3c(C(C)O)cc(nc3C2O)C(=O)OC4C)n1)C(N)=O (configuration not stated)
68	-3	-1	-17	CCSCC(C)(C)n1[nH]c2ccccc2c1=O
69	1	-6	22	Cc1cc(Br)cn2c(Cc3ccccc3C(F)(F)F)c(-c3ccccc3)nc12
70	4	4	-10	Cc1ccc(S(=O)(=O)NC2(C(=O)O)CCCC2)cc1
71	2	2	6	O=C1Nc2ccccc2-n2nnnc2C1N1CCN(C(=O)C2CCCO2)CC1 (configuration not stated)
72	-15	-17	0	COC(=O)[C@]12CCCCC=C1N(Cc1cccc3ccccc13)C(=O)[C@H](CC(=O)NCc1cccs1)C2
73	3	6	2	COC(=O)[C@]12CCCCC=C1N(Cc1ccco1)C(=O)[C@H](CC(=O)NCCCN1CCCC1=O)C2
74	1	-1	-12	COc1ccc(N2N=NN(C(C)C)C2=C(Cl)c2nnnn2-c2ccc(OC)cc2)cc1
75	3	2	10	CN1C(=O)[C@@](O)(c2cn(C)c3ccccc23)c2cc(Br)ccc21

Looked up by compound from above, 2 records:
no.	MT1-MMP act inh	MT1-MMP act inh RFP	HIV Env fusion	structure
69	1	-6	22	Cc1cc(Br)cn2c(Cc3ccccc3C(F)(F)F)c(-c3ccccc3)nc12
71	2	2	6	O=C1Nc2ccccc2-n2nnnc2C1N1CCN(C(=O)C2CCCO2)CC1 (configuration not stated)

(next part)
no.	MT1-MMP act inh	MT1-MMP act inh RFP	HIV Env fusion	structure
76	-2	5	2	C[C@]12CC[C@H](O)CC1=CCC1C2CC[C@@]2(C)C1CC[C@@H]2NC(=O)[C@@H](N)CO (some centres not stated)
77	3	-8	-82	Cc1ccc2nc(-c3ccc(NC(=S)NCC(C)(C)CN(C)C)cc3)sc2c1
78	6	-2	20	CCOC(=O)[C@]12CCCC=C1N(CCC1=CCCCC1)C(=O)[C@H](CC(=O)NCCCOC)C2
79	0	1	-7	Cc1ccc(-c2nc3c(C)cc(Br)cn3c2Cc2ccccc2)cc1
80	-5	-10	-51	COc1ccc([C@H]2CN(c3ccc(OC)cc3)C(=O)[C@@H]2CC(=O)Nc2ccc(Br)cc2)cc1
81	0	0	-14	OC(c1ccc(CN2CCCCC2)cc1)c1ncc(-c2ccccc2F)[nH]1 (configuration not stated)
82	1	0	7	COC(=O)[C@]12CCCCC=C1N(CCc1ccc(OC)c(OC)c1)C(=O)[C@H](CC(=O)NCCC(C)C)C2
83	-7	-8	15	CC(C)(C)OC(=O)N1CCCN(C(c2cc3ccccc3o2)c2nnnn2C(C)(C)C)CC1 (configuration not stated)
84	-6	-1	20	COc1ccc(-c2c(Sc3ccccc3)c3cc(-c4ccc5c(c4)OCO5)ccc3n2C)cc1
85	-3	3	2	CCCCCNC(=O)C(c1ccc(C(F)(F)F)cc1)n1c(=O)c(-c2ccco2)nc2ccccc21 (configuration not stated)
86	4	5	9	CC(C)C[C@@H]1Cc2[nH][nH]c(=O)c2[C@H](C(C)C)O1
87	10	5	23	COc1ccc(OC)c(CN2C(=O)CSCC2(C)C(=O)NCc2ccccc2)c1 (configuration not stated)
88	-22	-19	10	O=c1c(-c2cccs2)nc2ccccc2n1C(CCc1ccccc1)c1nc2ccccc2[nH]1 (configuration not stated)

Screening data: PubChem BioAssay, several laboratories
